Source: PubChem
VDR inh: blocks the human vitamin D receptor; VDR-SRC2-3 peptide fluorescence polarization, 2 h; P11473; Potency, µM, without a hit: max response, negative = inhibition, hits mostly inhibitors; 0.93% of 400,000 active; AID 504847; active = well fitted inhibition curve with a large enough effect; inconclusive = small, poorly fitted or top-dose-only effect, or another doubt; inactive = no such curve, though single readings can be large or run the other way; also: series mostly up to about 120 µM
Target sequence (P11473 whole entry, looked up): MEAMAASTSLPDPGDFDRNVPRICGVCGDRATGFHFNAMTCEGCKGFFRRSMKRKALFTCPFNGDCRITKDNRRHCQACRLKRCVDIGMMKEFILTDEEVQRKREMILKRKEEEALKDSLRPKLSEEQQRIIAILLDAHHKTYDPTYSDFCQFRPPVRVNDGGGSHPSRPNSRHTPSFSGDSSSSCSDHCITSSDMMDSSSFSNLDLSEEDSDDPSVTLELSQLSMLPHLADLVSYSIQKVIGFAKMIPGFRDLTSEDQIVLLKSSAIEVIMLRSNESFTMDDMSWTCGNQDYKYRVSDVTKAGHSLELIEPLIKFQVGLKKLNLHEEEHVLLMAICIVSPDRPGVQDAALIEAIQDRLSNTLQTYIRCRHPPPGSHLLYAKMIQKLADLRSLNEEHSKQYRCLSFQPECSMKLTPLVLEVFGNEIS
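Fluorescence polarization assay measuring small-molecule disruption of VDR binding to the coregulator peptide SRC2-3. Compounds were pin-transferred (23 nl) into the reagent mix and incubated 2 h at room temperature before reading.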
* marks the source's active call; other numbers are inactive results; ? = inconclusive; & = joins results of further samples. % is scaled to controls: 0 for no effect and ±100 for the full control effect; potency is read from the fitted curve at half-maximal effect.

Structure	VDR inh
COc1ccccc1N(CC(=O)NC1CCCC1)S(=O)(=O)c1cccc(C(F)(F)F)c1	13%
CCC(=O)NC(=S)Nc1c(C)cc(Br)cc1C	-12%
Cc1c(Cl)cccc1NC(=O)C1CCN(c2cnccn2)CC1	3%
CCN(CC)S(=O)(=O)c1ccc(N2CCOCC2)c(C(=O)O)c1	-14%
O=C(CCn1c2c(c3ccccc31)CCCC2)NNC(=O)c1cccc([N+](=O)[O-])c1	3%
C[N+]1=C(/C=C/Nc2ccccc2Cl)C(C)(C)c2ccccc21	-14%
Cc1cc([N+](=O)[O-])nn1CC(=O)NCc1ccccc1	1%
O=[N+]([O-])c1cc(/C=N/O)ccc1Oc1ccccc1Cl	-2%
COc1ccc(-c2cc3nc(C)c(CCC(=O)NC(C)CCc4ccco4)c(C)n3n2)c(OC)c1 (configuration not stated)	-9%
COC1=CC(C)C2CC3OC(=O)CC4C(C)=C(OC)C(=O)C([C@]2(C)C1=O)[C@]34C (some centres not stated)	27%
CCc1ccc(N(CC(=O)NC)S(C)(=O)=O)cc1	-12%
COc1ccccc1N1CCN(c2ncnc3onc(C)c23)CC1	4%
Cc1ccc(Cl)cc1NC(=O)N(C)CCO	-6%
O=C(CSc1nccn1Cc1ccco1)Nc1ccc(F)cc1	-17%&14%
Cc1noc(NS(=O)(=O)c2ccc(NC(=O)CCn3c(=O)oc4ccccc43)cc2)c1C	-8%
CC1CCC(C(C)C)C(OC(=O)Cn2c(-c3ccc(Cl)cc3)[n+](C)c3ccccc32)C1 (configuration not stated)	-2%
Cn1c(=O)c2cc(NCc3ccccc3)nnc2n(C)c1=O	0%
Cc1c(C(N)=O)sc2ncn(CC(=O)N3CCC(C)CC3)c(=O)c12	8%
c1ccc(-c2nc(SCc3nc4ccccc4[nH]3)c3oc4ccccc4c3n2)cc1	-2%
Cc1ccc(C(=O)N(Cc2cccnc2)Cc2cc3cc(C)ccc3n3nnnc23)cc1	1%
O=C(c1ccco1)N1CCN(C(=O)c2ccccc2NS(=O)(=O)c2ccc(F)cc2)CC1	5%
Cc1cccc(C)c1NC(=O)CN(C)C(=O)c1cccc(S(=O)(=O)N2CCN(c3ccc(F)cc3)CC2)c1	12%
CCN(C[C@H]1N[C@@](C)(C(=O)OC)[C@H]2C(=O)N(C)C(=O)[C@@H]12)C(=O)c1ccc(C(C)(C)C)cc1	4%
CCOc1ccc(Cc2nnc(SCC(=O)c3ccc(OC)cc3)o2)cc1	-8%
COc1ccc(CNC(=O)Cn2nc(C(F)(F)F)c(Br)c2C)cc1	11%
CC(NC(=O)c1ccc(Br)cc1)c1ccccc1 (configuration not stated)	6%
Cc1ccccc1N1CCN(C(=O)c2ccccc2NC(=O)C2CC=CCC2C(=O)O)CC1 (configuration not stated)	2%
COc1ccccc1N1CCN(C(=O)c2noc(C(C)C)c2[N+](=O)[O-])CC1	-17%
N#Cc1sc(NCc2cccc(Cl)c2)nc1Cl	-6%
COc1ccc(C(=O)NNC(=O)C(=O)NC(C)c2ccccc2)cc1OC (configuration not stated)	-21%
Cc1ccc(NC(=O)CN(c2ccc(Cl)cc2)S(=O)(=O)c2cc([N+](=O)[O-])ccc2Cl)c(C)c1	-3%
O=C(CCc1nnc(-c2ccc3c(c2)OCO3)o1)NC(c1ccccn1)C(F)(F)F (configuration not stated)	-6%
Cc1ccc(S(=O)(=O)N2CCCCC2)cc1NC(=O)COC(=O)c1c(F)cccc1F	-14%
O=C(CN1CCCCC1)Nc1ccc(NC(=O)c2ccc(Cl)cc2)cc1Cl	8%
Cc1ccc(N(C)S(=O)(=O)c2cccc(C(=O)Nc3nc4ccccc4[nH]3)c2)cc1	3%
C=C(C)C(=O)Nc1cccnc1Oc1ccc(F)cc1F	4%
CCCc1cc(=O)oc2cc(OCC(=O)Nc3ccc(S(N)(=O)=O)cc3)ccc12	-10%
O=C(CN1CCN(S(=O)(=O)c2ccc(F)cc2)CC1)Nc1ccc2c(c1)OCO2	7%
COc1cc(OC)cc(C(=O)n2nc(C)cc2C)c1	1%
COc1cc(CCC(=O)OCC(=O)Nc2ccc(C(N)=O)cc2)cc(OC)c1OC	-2%

The list goes on; it opens with the two that closed the last part.
Structure	VDR inh
COc1cc(OC)cc(C(=O)n2nc(C)cc2C)c1	1%
COc1cc(CCC(=O)OCC(=O)Nc2ccc(C(N)=O)cc2)cc(OC)c1OC	-2%
CCOC(=O)c1cc(-c2ccccc2)n(CC(=O)O)c1C	1%
Cc1cc(C)cc(-n2nnc(-c3nc(-c4ccc5c(c4)OCO5)no3)c2C)c1	21%
COc1ccc(CCC(=O)NC2CC(=O)N(c3ccc(F)cc3)C2)cc1 (configuration not stated)	0%
COc1cc(/C=C/c2cc(OC(C)=O)c3ccccc3n2)c(OC(C)=O)c([N+](=O)[O-])c1	-9%
O=c1cc(CN2CCN(C/C=C/c3ccccc3)CC2)c2cc(O)c(-c3ccccc3)cc2o1	?
CCCN1CCC(=O)N(C(CSc2ccc(Br)cc2)Cc2ccccc2)CC1 (configuration not stated)	0%
COc1ccc(NC(=O)c2cccc(N3C(=O)C4C5C=CC(C6CC56)C4C3=O)c2)c(OC)c1 (configuration not stated)	-9%
Nc1c(N(CCO)C(=O)/C=C/c2ccco2)c(=O)[nH]c(=O)n1Cc1ccccc1	3%
Cc1noc(C)c1COc1cccc(C(=O)Nc2ccc3c(c2)OCO3)c1	-13%
O=C(O)Cc1ccc2ccc3ccccc3c2c1	8%
COc1ccc(-n2ccnc2SCC(=O)Nc2nnc(C)s2)cc1	3%
CCN(CC(=O)Nc1c(F)cccc1F)C(=O)CSC(=S)N1CCCC1	13%
CC(C)c1ccc(C(=O)N2CCN(c3cnn(C)c(=O)c3Cl)CC2)cc1	-22%
COc1cccc(C(=O)Nc2nnc(C(C)C)s2)c1	2%
COc1ccc(C(CC(=O)O)NC(=O)c2ccco2)cc1OC (configuration not stated)	4%
Cc1cccc(-n2cnc(C(=O)NNC(=S)Nc3ccc(Cl)cc3)c2)n1	7%
CSc1ccc(OC2CCN(Cc3ccccc3)CC2)cc1	-5%
COc1ccc(Nc2nc3c(C)cccc3cc2C#N)c(OC)c1	-2%
O=C(COc1ccccc1)Nc1ncc2c(n1)CCCC2=O	1%
O=C1CCCC(=O)C1CS(=O)(=O)c1ccccc1	40µM*
Cn1ncc([N+](=O)[O-])c1C(=O)NC1CCCCC1	-11%
O=C(NNC(=O)C1CCCO1)c1ccccc1Cl (configuration not stated)	10%
CN1N=C2c3ccccc3CCCC2C1c1ccc(F)cc1 (configuration not stated)	7%
CC1CCCC(C)N1C(=O)COC(=O)Cc1c[nH]c2ccccc12 (configuration not stated)	-8%
COC(=O)c1cnn(-c2nc(OC)cc(OC)n2)c1C	1%
CC(C)C(=O)N1N=C2CCCCC2C1(O)C(F)(F)F (configuration not stated)	-4%
Cc1c(C(=O)O)nnn1-c1ccccc1	1%
CCCc1cc(C(=O)N2CCCC(N3CCN(c4ccc(F)cc4)CC3)C2)no1 (configuration not stated)	1%
CCc1ccccc1NC(=O)c1nnn(-c2ccc(F)cc2)c1C	-4%
Cc1cccc(NC(=O)CSc2nc(C)c(Cc3ccccc3)c(=O)[nH]2)c1	9%&-20%
Cn1c(SCC(=O)Nc2ccc3c(c2)OCCO3)nnc1-c1ccco1	4%
CC1CCCCC1NC(=O)CSc1nncs1 (configuration not stated)	1%

Next section; the last 2 above are carried over.
Cn1c(SCC(=O)Nc2ccc3c(c2)OCCO3)nnc1-c1ccco1
  VDR inh = 4%

CC1CCCCC1NC(=O)CSc1nncs1 (configuration not stated)
  VDR inh = 1%

CCC(=O)NC(=S)Nc1ccc2oc(-c3ccc(OC)cc3)nc2c1
  VDR inh = 7%

CCOc1ccc(Oc2c(/C=N/NC(=O)C3CC3)c(C)nn2-c2ccccc2)cc1
  VDR inh = -12%

C=CCn1c(SCC(=O)OCC)nc2cc(C(=O)NCc3ccco3)ccc2c1=O
  VDR inh = 2%

Cc1ccc(NC(=O)c2c(C)oc3ccc(O)c(CN4CCOCC4)c23)c(C)c1
  VDR inh = 5%

O=C1C(F)=CC(COC(c2ccccc2)(c2ccccc2)c2ccccc2)OC1n1cc(F)c(=O)[nH]c1=O (configuration not stated)
  VDR inh = 45µM*

COc1ccc(-c2cc3ccccc3n2CC(O)CNCCO)cc1 (configuration not stated)
  VDR inh = 1%

CCCC(=O)N1CCN(S(=O)(=O)c2cc(Cl)ccc2OC)CC1
  VDR inh = 27%

C[C@]12c3[nH]c4ccccc4c3CCN1C(=O)C(CC(=O)NCc1ccco1)C[C@@H]2C(=O)N1CCOCC1 (some centres not stated)
  VDR inh = -1%

COc1ccc(-c2cc(C(=O)O)c3c(C)nn(-c4ccccn4)c3n2)cc1
  VDR inh = 0%

CCOC(=O)Cn1c(=NC(=O)C(C)(C)C)sc2cc([N+](=O)[O-])ccc21
  VDR inh = -21%

6 entries from above, arranged by their value in VDR inh, falling.
CCCC(=O)N1CCN(S(=O)(=O)c2cc(Cl)ccc2OC)CC1
  VDR inh = 27%

CCC(=O)NC(=S)Nc1ccc2oc(-c3ccc(OC)cc3)nc2c1
  VDR inh = 7%

Cc1ccc(NC(=O)c2c(C)oc3ccc(O)c(CN4CCOCC4)c23)c(C)c1
  VDR inh = 5%

C[C@]12c3[nH]c4ccccc4c3CCN1C(=O)C(CC(=O)NCc1ccco1)C[C@@H]2C(=O)N1CCOCC1 (some centres not stated)
  VDR inh = -1%

CCOc1ccc(Oc2c(/C=N/NC(=O)C3CC3)c(C)nn2-c2ccccc2)cc1
  VDR inh = -12%

CCOC(=O)Cn1c(=NC(=O)C(C)(C)C)sc2cc([N+](=O)[O-])ccc21
  VDR inh = -21%

Grouped by structure, those above with bromine (four)
CCC(=O)NC(=S)Nc1c(C)cc(Br)cc1C
  VDR inh = -12%

COc1ccc(CNC(=O)Cn2nc(C(F)(F)F)c(Br)c2C)cc1
  VDR inh = 11%

CC(NC(=O)c1ccc(Br)cc1)c1ccccc1 (configuration not stated)
  VDR inh = 6%

CCCN1CCC(=O)N(C(CSc2ccc(Br)cc2)Cc2ccccc2)CC1 (configuration not stated)
  VDR inh = 0%

Additional entries.
CN1CCN(S(=O)(=O)c2cc([N+](=O)[O-])ccc2Cl)CC1
  VDR inh = -16%

Cc1ccc(OCC(=O)N2CCN(C(=O)c3cccs3)CC2)cc1
  VDR inh = -1%

Cn1c(SCc2cccc(Br)c2)nnc1-c1ccncc1
  VDR inh = -17%

CCOc1cc(C(=S)N2CCOCC2)ccc1OS(=O)(=O)c1ccccc1[N+](=O)[O-]
  VDR inh = 2%

COc1cc(Cl)c(S(=O)(=O)n2cnc(C)c2)cc1Cl
  VDR inh = -1%

COCc1[nH]nc2c1C(C1C=CCCC1)C(C#N)=C(N)O2 (configuration not stated)
  VDR inh = 8%

COc1ccc(Nc2oc(-c3ccc(COc4cccc(C)c4)o3)nc2C#N)cc1
  VDR inh = 1%

CC1=C(c2ccc(F)cc2)S(=O)(=O)N=C1N1CCC(C(=O)NCCc2ccccc2C)CC1
  VDR inh = 9%

COC(=O)c1nnn(CC(=O)NC(=O)Nc2ccccc2)c1C(=O)OC
  VDR inh = 1%

O=C(CCN1C(=O)c2cccc3cccc(c23)C1=O)N1CCOCC1
  VDR inh = -15%

CCOC(=O)N1CCC(NC(=O)c2ccc3nc(N4CCOCC4)sc3c2)CC1
  VDR inh = -14%

CCS(=O)(=O)c1nc(S(=O)(=O)c2ccc(C)cc2)c(N2CCC(C)CC2)s1
  VDR inh = -5%

CC1C(=O)Nc2ccc(S(=O)(=O)N3CCCCCC3)cc21 (configuration not stated)
  VDR inh = 0%

CCc1noc(C)c1C(=O)Nc1ccc(F)c(F)c1F
  VDR inh = 13%

C=CCN1C=CC(=O)[C@@H](O)[C@H]1c1ccccc1Br
  VDR inh = -18%

CCOc1cc(C2c3c(oc4ccccc4c3=O)C(=O)N2Cc2ccc(OC)cc2)ccc1O (configuration not stated)
  VDR inh = -20%

COCCNc1cc(-c2ccccc2C)ncn1
  VDR inh = 30%

CCOC(=O)/C=C1\CC(C(=O)OCC)Oc2c(OC)cccc21 (configuration not stated)
  VDR inh = 79µM*

CC(=O)c1ccc(-n2nnnc2SCC(=O)N2CCN(C(=O)c3ccco3)CC2)cc1
  VDR inh = -1%

O=C(O)CSc1nnc(-c2ccc3c(c2)OCO3)n1-c1ccccc1
  VDR inh = 1%

CCOC(=O)NC(=O)/C(C#N)=C\c1ccccc1
  VDR inh = -12%

CCC(=O)c1ccc(OC)c(OC)c1OCc1ccccc1
  VDR inh = -18%

O=C(CN1CCN(c2ccc([N+](=O)[O-])cc2)CC1)Nc1ccccn1
  VDR inh = -17%

CCN1CCN(Cc2ccc(NC(=O)c3ccc(C)c(NC(=O)c4cccc5[nH]ccc45)c3)cc2C(F)(F)F)CC1
  VDR inh = -16%

COc1ccc(Cc2nnc(SCC(=O)NCc3ccco3)o2)cc1
  VDR inh = -27%

CN(Cc1ccccc1)C(=O)[C@H](Cc1ccc2ccccc2c1)NC(=O)[C@@H]1CCCN1C(=O)Nc1ccccc1[N+](=O)[O-]
  VDR inh = 10%

CCc1ccc(S(=O)(=O)c2cn(CC(=O)Nc3cccc(C)c3)c3ccc(Cl)cc3c2=O)cc1
  VDR inh = -12%

O=C(CCc1ccccc1)Nc1nnc(-c2ccccn2)o1
  VDR inh = -11%

CCOCCc1nnc(NC(=O)CS(=O)(=O)Cc2ccccc2)s1
  VDR inh = -1%

O=C(CSc1ncnc2c1nnn2Cc1ccccc1F)N1CCN(c2ccccc2)CC1
  VDR inh = 7%

C[C@H](NC(=O)c1ccccc1)C(=O)N1CCN(Cc2ccc3c(c2)OCO3)CC1
  VDR inh = 0%

CC(C)Cn1cc(C(=O)N2CCOCC2)c2c3ccccc3n(C)c2c1=O
  VDR inh = -7%

Cc1ccc(S(=O)(=O)N2CCN(c3nn(C)c(=O)n(C)c3=O)CC2)cc1C
  VDR inh = 8%

CSCC[C@H](NC(=O)Cc1c(C)c2c(cc(C)c3c(C)coc32)oc1=O)C(=O)O
  VDR inh = 16%

CCc1cc(C(=O)NNC(=S)Nc2ccccc2C)cs1
  VDR inh = -1%

CCc1nc2nc(C)c(NS(=O)(=O)c3ccc(C)cc3)c(=O)n2[nH]1
  VDR inh = 6%

Cc1ccc(-c2cc(C(=O)N/N=C/c3c(C)nn(C)c3C)c3ccccc3n2)c(C)c1
  VDR inh = -16%

An excerpt; count on the stated rates, not on these rows.
